Compound activity (PubChem BioAssay)
ALR H2O2 inh: human ALR oxidase inhibition via reduced H2O2; purified ALR, DTT oxidation, H2O2 HRP-luminol luminescence; P55789; inhibition, % (test concentration not listed); hit rate 3.8% among 290,000; AID 485317;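 active means mean and each replicate at 75% or more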;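 further: stock transfer was 7.5 nL into about 7.5 µL; 0% = neutral wells and 100% = wells with inactivated enzyme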
Target sequence (P55789 whole entry, looked up): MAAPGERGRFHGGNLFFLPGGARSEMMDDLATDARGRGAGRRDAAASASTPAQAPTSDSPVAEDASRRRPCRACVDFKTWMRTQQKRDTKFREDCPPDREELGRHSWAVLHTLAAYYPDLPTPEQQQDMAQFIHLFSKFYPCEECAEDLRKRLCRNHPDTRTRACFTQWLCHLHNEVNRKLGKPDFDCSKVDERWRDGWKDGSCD
HNF4A DNA FP: change in binding of human HNF4 alpha to DNA | activity change, % at 10 µM | AID 1224865 | P41235 | hit rate 0.3% among 360,000 | HNF4a-FITC DNA binding, fluorescence polarization, 1 h; in the data active means activity change above about 30%, passing the limit was not always enough;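 further: controls were the assay level and a saturating level of protein; the project sought stronger binding though the title names inhibitors; some compounds called inactive have numbers as strong as hits; positive values seem to mean higher polarization but the record does not say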
FGF22 binding: FGF22 (human) thermal shift binding; recombinant FGF22 thermal shift, SYPRO orange fluorescence; percent of sucrose octasulfate shift, DMSO zero; calls only at 9.99 µM; hit rate 1.5% among 340,000; AID 651658;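 active means melting point raised past a set limit in the mean and every replicate; three in four hits are not shown here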
Target sequence (Q9HCT0 whole entry, looked up): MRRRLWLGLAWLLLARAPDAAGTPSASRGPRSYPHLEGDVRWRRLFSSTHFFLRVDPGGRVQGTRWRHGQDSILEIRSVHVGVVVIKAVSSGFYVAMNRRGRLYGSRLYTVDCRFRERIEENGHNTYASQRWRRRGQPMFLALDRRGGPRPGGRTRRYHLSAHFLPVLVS
Beta2AR agonist: activates human beta-2 adrenergic receptor causing internalization; P07550; Am2.2-beta2AR cells, FAP receptor internalization, flow cytometry; reference of the scale not given here; response, % (no concentration beside the values); hit rate 0.43% among 340,000; AID 504454;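 active means response above a set limit, near 3 SD of response in nonfluorescent compounds, cut at about 42% in these data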;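 further: stock transfer was 100 nL into about 11 µL; a reference agonist was the positive control; negative values mostly stem from fluorescent compounds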
UCH37 DUB inh: inhibitors of human deubiquitinating enzyme UCH37 | hit rate 0.33% among 330,000 | inhibition, % (no concentration beside the values) | Q9Y5K5 | purified proteasome/UCH37, Ub-AMC cleavage fluorescence;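 active means mean of two replicates above 20%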;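 further: 0% = compound-free wells with enzyme and 100% = wells lacking proteasome; stock transfer was 100 nL into about 20 µL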
Target sequence (Q9Y5K5 whole entry, looked up): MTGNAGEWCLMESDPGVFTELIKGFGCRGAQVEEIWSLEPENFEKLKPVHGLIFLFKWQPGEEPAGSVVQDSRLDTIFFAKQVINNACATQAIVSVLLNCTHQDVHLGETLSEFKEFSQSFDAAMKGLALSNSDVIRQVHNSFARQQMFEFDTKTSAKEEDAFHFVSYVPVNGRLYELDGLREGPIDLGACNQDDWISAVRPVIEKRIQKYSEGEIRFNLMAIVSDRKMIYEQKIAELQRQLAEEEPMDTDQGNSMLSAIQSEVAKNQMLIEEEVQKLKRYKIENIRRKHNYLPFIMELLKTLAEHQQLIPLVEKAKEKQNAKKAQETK
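Signal – fluorescence, ex 355 nm, em 460 nm · System – Proteasome-bound UCH37 · Input – 0.15 nM proteasome as dispensed · Timing – 30 min preincubation with enzyme, 25 min cleavage at room temperature · Read-out basis – percent inhibition of cleavage signal versus uninhibited and no-proteasome wells · Medium – Tris-HCl pH 7.4 with ATP-MgCl2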
Ecoli growth: blocks Escherichia coli growth; AID 1053175; hit rate 0.21% among 330,000; OD600, 23 h; active compounds read low; OD600 absorbance (concentration not given with the values);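 active means OD600 absorbance below the run mean of sample wells minus 3.6 SD, in any replicate, cut at about 0.56 in these data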;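 further: stock transfer was 300 nL into about 60 µL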
rRNA inh HTS: selective bacterial rRNA inhibition in E. coli; hit rate 1.6% among 350,000; GFP signal change (wild-type ribosome), % (no concentration beside the values); E. coli WT GFP vs humanized-ribosome RFP mutants, fluorescence, 24 h; active compounds read low; DMSO median 0, no signal -100; AID 720706;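 active means significant combined selectivity score with lowered wild-type GFP, culture density cut under 30%, mutant RFP and density less affected; inactive means any of these conditions unmet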; further: one replicate is shown; some compounds called inactive have numbers as strong as hits
rRNA inh HTS OD600: recorded beside rRNA inh HTS, whose call it bears; OD600 change, %; measured here: OD600 growth;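 optical density of the mix in the first replicate; 0 = DMSO median and -100 = no signal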
rRNA inh HTS RFP: recorded beside rRNA inh HTS, whose call it bears; RFP signal change, %; measured here: RFP humanized mutant strains;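 first replicate; 0 = DMSO median and -100 = no signal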
Active calls of the source: *; i = inactive; . = not tested or not shown.

SMILES	ALR H2O2 inh	HNF4A DNA FP	FGF22 binding	Beta2AR agonist	UCH37 DUB inh	Ecoli growth	rRNA inh HTS	rRNA inh HTS OD600	rRNA inh HTS RFP
C/C(N)=C(/C#N)C(=O)COC(=O)C1CCN(C(=O)c2ccc(Cl)cc2)CC1	-11.7	5.0	i	5.0	4.9	0.694	-1.5	-6.7	-2.1
CC(=O)/C(=C\N(C)C)Sc1ccc(Cl)cc1	-10.0	-5.3	i	-6.6	3.3	0.647	23.0	8.1	2.8
Cc1nc2scc(C)n2c(=O)c1S(=O)(=O)Nc1ccc(N2CCOCC2)cc1	68.5	5.8	i	0.2	9.9	0.627	1.2	-2.5	-1.4
O=C(NCCCc1ccccc1)c1cccc(NC(=O)C2CCCC2)c1	.	2.3	i	9.7	.	.	-32.0	-39.5	-8.8
O=C(Nc1ccc(-c2nc3ccccc3[nH]2)cc1)C1CCCN(Cc2ccn[nH]2)C1 (stereo unspecified)	.	0.6	i	.	.	.	2.9	7.3	-0.6
CCC1Cc2c(nc(N)c3c(N)nc(N4CCOCC4)c(C#N)c23)O1 (stereo unspecified)	3.6	8.4	i	3.0	-86.0	0.673	-7.6	-9.4	1.7
Cc1cc(C)n2nc(C(=O)OCC(=O)NNC(=O)c3ccc(Cl)cc3)nc2n1	-9.0	1.6	i	2.1	-0.5	0.68	11.7	17.3	-3.7
Cc1cccc(CSC2=NCCN2C(=O)c2ccc(Br)o2)c1	95.4*	-0.4	i	3.7	5.5	0.752	-12.2	-4.1	-5.6
COc1cccc(C(=O)NC(=O)Nc2cc(C)[nH]n2)c1	1.8	-2.9	i	0.3	2.6	0.638	8.1	3.9	-4.4
Cc1cccc(C)c1NC(=O)COC(=O)c1ccc2[nH]c3c(c2c1)CCCC3	0.1	0.5	i	-5.3	2.5	0.704	-2.5	-10.2	3.6
COc1ccc(C(=O)C(C)OC(=O)c2cccc(S(=O)(=O)Nc3c(C)n(C)n(-c4ccccc4)c3=O)c2)cc1 (stereo unspecified)	-0.8	2.3	i	2.0	1.7	0.669	-2.9	-10.4	0.0
COc1ccc(N2CCN(C(=O)C(NC(=O)c3c(F)cccc3F)C(C)C)CC2)cc1 (stereo unspecified)	57.9	2.9	i	4.0	2.9	0.674	-0.4	-4.0	-2.7
CCn1nccc1C(=O)Nc1ccc(Cl)cn1	-9.3	2.3	.	-3.5	-0.4	0.687	.	.	.
CCOc1ncccc1C(=O)OCC(=O)c1ccc(Br)s1	8.7	2.1	i	3.0	0.2	0.625	-58.7	-74.2	-22.8
COc1ccc(-n2cnc3cc(NCc4ccccn4)ccc32)cc1	2.4	2.4	i	1.0	-1.7	0.645	-5.1	-7.5	22.9
OCCNCc1cc(Br)ccc1OCc1ccc(Cl)cc1Cl	.	2.7	.	27.1	5.1	0.633	.	.	.
CCN(CC(=O)NCc1ccc(F)cc1)C(=O)C1CC1C (stereo unspecified)	.	3.6	i	0.6	3.7	0.635	6.3	10.3	-2.3
COc1ccc(-c2n[nH]c(=S)n2-c2ccc(C)cc2)cc1	15.4	-0.4	i	0.2	-1.8	0.694	-9.9	-10.5	2.3
COc1ccc(-c2c(C#N)c(SCC(=O)c3cc4ccccc4oc3=O)nc(C)c2C(=O)Nc2ccccc2)cc1	6.9	2.6	.	-7.1	-29.2	0.733	.	.	.
COc1ccc(S(=O)(=O)N(C)CC(=O)N2CCC(C(N)=O)CC2)cc1	-4.5	3.5	i	-5.7	1.9	0.656	3.5	-0.7	-2.8
CC(=O)Nc1cccc(-c2nnc3n2CC(C)S3)c1 (stereo unspecified)	-9.5	-0.5	i	-4.7	4.7	0.66	2.0	4.4	-1.1
CCN(CC)S(=O)(=O)c1ccc2oc(C(=O)N3CCCCCC3)c(C)c2c1	-3.4	-5.5	.	-0.2	-0.7	0.695	.	.	.
CC(C)C[C@@H](CNCC(=O)[C@H](C)NC(=O)c1[nH]cnc1C(=O)N[C@H](CN)CC(C)C)NC(=O)c1nc[nH]c1C(=O)N[C@@H](C)C(=O)O	.	-1.4	i	8.7	.	.	28.2	10.3	-0.4
CCOc1ccccc1NC1c2ccccc2C(=O)N1c1ccc(C)cn1 (stereo unspecified)	.	3.2	i	6.2	1.1	0.741	-5.0	-7.1	1.1
CC(C)(C)C(=O)Nc1ccc2oc(-c3cc(F)c(F)cc3Cl)nc2c1	-10.7	-0.2	.	9.0	-9.4	0.701	.	.	.

In another format: results already given
ALR H2O2 inh,HNF4A DNA FP,FGF22 binding,Beta2AR agonist,UCH37 DUB inh,Ecoli growth,rRNA inh HTS,rRNA inh HTS OD600,rRNA inh HTS RFP,compound
3.6,8.4,i,3.0,-86.0,0.673,-7.6,-9.4,1.7,CCC1Cc2c(nc(N)c3c(N)nc(N4CCOCC4)c(C#N)c23)O1 (stereo unspecified)
-9.0,1.6,i,2.1,-0.5,0.68,11.7,17.3,-3.7,Cc1cc(C)n2nc(C(=O)OCC(=O)NNC(=O)c3ccc(Cl)cc3)nc2n1
95.4*,-0.4,i,3.7,5.5,0.752,-12.2,-4.1,-5.6,Cc1cccc(CSC2=NCCN2C(=O)c2ccc(Br)o2)c1

Other entries
SMILES	ALR H2O2 inh	HNF4A DNA FP	FGF22 binding	Beta2AR agonist	UCH37 DUB inh	Ecoli growth	rRNA inh HTS	rRNA inh HTS OD600	rRNA inh HTS RFP
CC(C)N1C(=S)SC(C)(C)C1n1oc(=O)n(-c2cccc(Cl)c2)c1=O (stereo unspecified)	-9.2	-3.1	i	4.7	3.1	0.721	-16.9	-16.5	13.6
O=C(Nc1ccc(Br)cc1)C1CC=CCC1C(=O)OCC1CCCO1 (stereo unspecified)	.	-3.2	i	5.3	1.0	0.636	2.6	0.3	4.4
CC(C)CN(C(=O)CC(C)c1ccccc1)c1c(N)n(Cc2ccccc2)c(=O)[nH]c1=O (stereo unspecified)	-10.0	0.4	i	3.6	3.2	0.673	8.3	3.9	-0.7
COC(=O)c1sc(NC(=O)CSc2nc3cccnc3n2C2CCCCC2)nc1C	-4.9	3.0	.	2.5	3.0	0.677	.	.	.
CN(C)CCNCc1ccc(OC2CCCC2)cc1	-0.5	-1.4	.	3.2	3.9	0.658	.	.	.
CC1(C)CC(=O)C(N=Nc2ccc(S(=O)(=O)N3CCCCCC3)cc2)=C(O)C1	.	-3.5	.	-11.9	0.1	0.726	.	.	.
O=C(Nc1ccc(Br)cc1F)C1CCN(c2nnc(-n3cccc3)s2)CC1	-7.5	-0.5	i	-16.6	0.4	0.704	-0.5	5.1	0.2
CC(=O)c1ccc(NC(=O)CCS(=O)(=O)c2ccc3c(c2)n(C)c(=O)c(=O)n3C)cc1	8.9	-4.5	.	5.7	7.6	0.743	.	.	.
COC(=O)C1(CO)NC(c2cccs2)C2C(=O)N(c3ccccc3)C(=O)C21 (stereo unspecified)	-4.9	2.7	.	0.2	0.5	0.716	.	.	.
COc1cc(CNCc2ccccn2)ccc1OCc1ccccc1Cl	-12.6	2.5	i	22.3	-2.0	0.69	-35.5	-32.1	30.5
O=S(=O)(c1cccc(-n2cnnn2)c1)N1CCOCC1	-9.2	-1.0	.	3.1	4.3	0.675	.	.	.
O=C(CN1C(=O)NC2(CCOc3ccccc32)C1=O)c1ccc(F)cc1 (stereo unspecified)	2.7	5.4	i	4.7	-0.2	0.678	0.4	-1.9	0.0
CCCOc1ccc(C(=O)N2CCCc3ccccc32)cc1	10.4	-0.9	.	-15.6	1.7	0.706	.	.	.
Cc1ccccc1C(=O)N1CCC(C(=O)O)CC1	-2.4	8.0	.	-3.1	-2.0	0.733	.	.	.
Cn1sc(NC(=O)c2cccc(Cl)c2)nc1=O	34.1	-0.2	.	2.4	6.8	0.685	.	.	.
CCc1ccc(OCC(=O)N2CC(C(=O)OC)Oc3ccccc32)cc1 (stereo unspecified)	6.0	4.7	i	30.3	2.6	0.656	-7.4	-1.6	3.6
O=C(NC1CC2CCCC(C1)N2C(=O)N1CCCCC1)C1CCCCC1 (stereo unspecified)	2.0	-0.6	.	-6.3	2.8	0.716	.	.	.
CCN(CC)S(=O)(=O)c1ccc(N2CCOCC2)c(NC(=O)CCC2CCCCC2)c1	0.6	-1.3	.	-6.0	1.1	.	.	.	.
COc1cccc(CC(=O)Nc2ccc3c(c2)CCC3)c1	.	1.7	i	-8.4	0.4	0.649	-9.1	-22.0	7.2
O=C1NC(=O)C2(CCCCC2)N1	.	2.4	i	1.5	4.6	0.703	.	.	.
CN1CCN(C(=S)c2cn(Cc3cccc(F)c3)c3ccccc23)CC1	-0.6	-2.2	i	-2.5	4.6	0.678	-26.1	-38.9	-4.7
COc1cc(CNC2CCCCC2OC)cc(OC)c1 (stereo unspecified)	-1.4	-3.3	i	3.1	2.0	0.677	10.8	2.0	-5.4
COc1ccc(CNC(=O)Cc2csc(Nc3nc(=S)[nH]c4ccccc34)n2)cc1	-1.9	4.6	.	-1.3	.	.	.	.	.
O=C(Cn1cnc2c(nnn2Cc2ccccc2)c1=O)NCc1ccco1	4.8	-3.4	i	19.9	1.1	0.673	-2.4	7.8	-5.5
CC1(C)N=C(N)NC(Nc2cccc(Br)c2)=N1	-2.6	-4.4	.	-2.8	4.2	0.73	.	.	.
Later entries:
SMILES	ALR H2O2 inh	HNF4A DNA FP	FGF22 binding	Beta2AR agonist	UCH37 DUB inh	Ecoli growth	rRNA inh HTS	rRNA inh HTS OD600	rRNA inh HTS RFP
COc1ccc(S(=O)(=O)NCC(=O)N(CC2CCCO2)C(C(=O)NC2CCCC2)C(C)C)cc1 (stereo unspecified)	-5.4	-1.9	i	-0.9	-1.4	0.693	1.9	5.1	-1.6
CC(C(=O)Nc1ccccc1)N(c1cccc(Cl)c1)S(C)(=O)=O (stereo unspecified)	-4.4	-0.5	.	-2.7	1.6	0.668	-3.5	-7.0	-1.9
S=C(Nc1ccccc1Cl)NC1CC2CCCC(C1)N2C1CC1 (stereo unspecified)	.	-2.5	i	2.2	0.6	0.69	11.3	6.5	1.2
O=C(c1ccc(F)cc1)C(C(=O)N1CCCCC1)n1ccccc1=O (stereo unspecified)	2.7	-3.2	i	-3.9	-1.0	0.595	12.2	5.0	2.3
Cc1c(NS(=O)(=O)c2cccc(C(=O)N3CCC(C)CC3)c2)c(=O)n(-c2ccccc2)n1C	-1.1	-3.4	i	-1.8	2.7	0.726	4.4	-1.1	2.3
COc1cc(OC)cc(C(=O)Nc2ccn(C)n2)c1	-2.4	4.7	i	4.2	1.7	0.666	20.6	6.2	3.5
NC(=O)c1ccccc1NC(=O)/C=C/C(=O)O	-5.4	-0.8	.	-0.3	-17.2	0.707	.	.	.
CCc1cc(C(=O)Nc2ccccc2)cs1	3.3	0.3	.	1.1	3.7	0.673	.	.	.
CSc1ccc(S(=O)(=O)NCC(=O)OC2CCOC2=O)cc1[N+](=O)[O-] (stereo unspecified)	-3.5	2.4	i	-9.6	5.4	0.7	-5.6	6.1	-1.4
COc1ccc(-c2nnn(Cc3nc(N)nc(N4CCOCC4)n3)n2)cc1OC	-1.5	0.9	.	7.4	-2.9	0.83	.	.	.
CC(=NNc1ccc2ccccc2n1)c1ccccc1O	.	1.4	i	-1.8	.	.	-13.0	-0.6	-0.5
Cc1cccc2sc(N(CCCN(C)C)C(=O)c3nc4ccccc4s3)nc12	-0.5	12.9	.	3.1	-258.5	0.66	.	.	.
O=C(CSc1nnc(COc2ccc(F)cc2)o1)N1CCCCC1	-0.8	-2.2	i	-7.2	1.6	0.669	0.2	-6.0	-1.2
COc1cccc(Cn2nnc(C(=O)NCc3ccc(F)cc3)c2N)c1	-6.1	5.1	.	4.6	4.7	0.745	9.5	13.2	1.0

Not all compounds are listed; rates above refer to the full screens.
